# Screening data deposited in PubChem BioAssay by several laboratories.
# PABP polyA inh: blocks human PABP binding to poly(A) RNA; fluorescence polarization; inhibition, % at 35 µM; 290,000 tested, 1% active;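 active = 50% or more with normal probe brightness, or confirmed in later tests; about a fifth of its hits are not listed in these tables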;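 also: calls also rest on retests at 20 µM and on dose response follow-up; controls were probe without protein and protein plus probe with vehicle; some compounds called inactive have numbers as strong as hits; many hits fall short of the cut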
# Target sequence (P11940 whole entry, looked up): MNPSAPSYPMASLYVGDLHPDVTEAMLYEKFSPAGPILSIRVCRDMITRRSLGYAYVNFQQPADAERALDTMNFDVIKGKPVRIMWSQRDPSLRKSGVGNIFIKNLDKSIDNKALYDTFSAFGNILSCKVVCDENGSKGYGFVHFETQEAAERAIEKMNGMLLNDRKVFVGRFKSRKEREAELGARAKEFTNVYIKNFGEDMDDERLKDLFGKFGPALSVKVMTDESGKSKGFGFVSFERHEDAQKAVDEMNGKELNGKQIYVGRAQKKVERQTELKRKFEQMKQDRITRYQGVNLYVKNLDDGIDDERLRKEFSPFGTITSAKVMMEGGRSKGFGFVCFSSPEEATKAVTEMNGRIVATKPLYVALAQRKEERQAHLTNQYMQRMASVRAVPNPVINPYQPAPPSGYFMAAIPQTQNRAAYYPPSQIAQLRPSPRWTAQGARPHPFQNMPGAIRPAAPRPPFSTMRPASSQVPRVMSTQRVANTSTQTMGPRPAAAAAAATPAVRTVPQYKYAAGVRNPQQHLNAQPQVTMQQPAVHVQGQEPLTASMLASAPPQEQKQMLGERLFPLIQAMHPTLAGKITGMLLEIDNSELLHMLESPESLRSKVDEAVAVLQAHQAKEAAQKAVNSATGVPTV
# MT1-MMP act inh: blocks activation of human MT1-MMP; HT1080 RFP-PRO-GFP cells, GFP/RFP ratio fluorescence, overnight; percent of plate control window, DMSO zero; GFP/RFP ratio change, % at 20 µM; 360,000 tested, 0.061% active;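 active = GFP/RFP ratio change of at least 30% with cell ATP level not reduced by more than half and red fluorescence within 50% of control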; also: strong numbers were not always called active
#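 Assay system: HT1080 RFP-PRO-GFP cells | Dosing: 20 µM single dose, 1% DMSO | Incubation: Cells overnight before dosing, compound overnight, 37 °C, 5% CO2 | Evaluation: GFP/RFP fluorescence ratio | Control set: DMSO-only wells and HT1080 RFP-L50D-GFP cell wells as references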
# eIF4H FP inh: inhibitors of RNA binding by human eIF4H. inhibition, % at 35 µM. eIF4H fluorescence polarization binding assay. Q15056. AID 2012. 290,000 tested, 0.94% active;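 active = 50% or more with normal probe brightness, or confirmed in later tests; about a fifth of its hits are not listed in these tables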;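 also: calls also rest on retests at 20 µM and on dose response follow-up; 0% = protein and probe with vehicle and 100% = probe without protein; strong numbers were not always called active; many hits fall short of the cut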
# Yeast UUG start: yeast start codon fidelity modulation | S. cerevisiae UUG-firefly luciferase reporter, luminescence/redox ratio | activity score, % at 18.7 µM | 350,000 tested, 0.13% active;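 active = replicate mean at a twofold rise or more, about +100% in these data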;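 also: firefly luciferase made from a UUG start codon reports start codon fidelity; reporter light over untreated wells divided by growth signal over untreated wells; some hits fall short of that in this replicate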
# CSC inhib: blocks cancer stem cells | 300,000 tested, 1.1% active | cancer stem cell-like cells viability, luminescence | inhibition, % at 7.5 µM;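 active = mean at 75% or more and at least half the replicates too; tested in HMLE shEcad cells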;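 also: 0% = median of negative and 100% = median of positive control wells; the first replicate is given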
# HIV Env fusion: HIV envelope-mediated fusion inhibition; HeLa-JRFL Env/CEM21 cell fusion, luciferase; inhibition, % at 12.3 µM; 360,000 tested, 1.1% active; AID 651610;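 active = mean replicate inhibition score of at least 50 and every replicate individually at or above 50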;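 also: 0% = plate neutral controls and 100% = maraviroc near 300 nM; one replicate is shown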
# Rce1 inh: inhibitors of yeast Ras-converting enzyme. yeast membranes, quenched prenylated peptide cleavage fluorescence. calls only. Q03530. 290,000 tested, 0.27% active;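 active = fall in fluorescence gain of 50% or more versus controls, with final raw signal at or below 3038400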;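 also: plate controls were neutral control wells for no effect and wells lacking membranes for full effect; tested at 10 µM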
# Target sequence (Q03530 whole entry, looked up): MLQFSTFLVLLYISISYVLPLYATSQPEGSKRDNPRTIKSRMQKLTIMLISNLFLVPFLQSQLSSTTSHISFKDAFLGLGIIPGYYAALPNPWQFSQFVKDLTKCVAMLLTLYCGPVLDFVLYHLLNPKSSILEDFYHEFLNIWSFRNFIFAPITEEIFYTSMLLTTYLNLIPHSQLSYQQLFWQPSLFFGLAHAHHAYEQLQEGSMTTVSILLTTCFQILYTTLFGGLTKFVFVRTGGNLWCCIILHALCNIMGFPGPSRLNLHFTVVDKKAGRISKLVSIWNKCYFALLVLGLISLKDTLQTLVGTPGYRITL
# eIF4H FP inh retest: further read-out of eIF4H FP inh, marked with its call; inhibition, %; compound at 20 µM; confirmation average;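 mean of two retest wells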
# PABP polyA inh retest: second read-out of PABP polyA inh, no call of its own (marks repeat the call); inhibition, %; compound at 20 µM; confirmation repeats;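 mean of two retest wells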
# MT1-MMP act inh RFP: further read-out of MT1-MMP act inh, marked with its call; RFP signal change, %; measured here: RFP expression control read;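 0 = vehicle wells; hits needed this value within 50% of zero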
# The depositor's hits bear a star; i = inactive; . = no result given. The list is partial, so the mix of outcomes need not match the whole.
SMILES,PABP polyA inh,MT1-MMP act inh,MT1-MMP act inh RFP,eIF4H FP inh,Yeast UUG start,CSC inhib,HIV Env fusion,Rce1 inh,others
O=C(O)c1cccc(NC(=O)c2cccc(S(=O)(=O)N3CCc4ccccc4C3)c2)c1,9,2,5,-16,0,-8,-4,i,
Cc1ccc(-c2noc(-c3ccno3)n2)cc1,-9,2,-1,-10,.,-4,-53,i,
CCOC(=O)c1ccc(NC(=O)CN2C(=O)NC3(CCCCCCC3)C2=O)cc1,.,-3,-2,.,-3,.,-21,.,
CCCCC(=O)N1CCCC(C(=O)OCC)C1 (centres undefined),-6,.,.,3,-6,-11,-50,i,
COCCN(C(=O)COC(=O)CCc1c[nH]c2ccccc12)c1c(N)n(Cc2ccccc2)c(=O)[nH]c1=O,.,4,0,.,.,-10,2,i,
COc1ccccc1CNC(=O)c1cnc2sccn2c1=O,3,2,2,4,-3,-11,15,i,
N#Cc1nc(-c2ccccc2)oc1N1CCC(C(N)=O)CC1,4,-6,-5,-2,-19,9,-5,i,
COc1cccc(N2CCN(c3nc(C)cc(=O)[nH]3)CC2)c1,6,-2,4,0,-14,-7,-4,i,
Cc1csc2nc(CSc3nc4ccccc4o3)c(Br)n12,-5,-3,-7,5,.,11,.,i,
Cn1cncc1C#Cc1ccc2cc(C(C)(C)O)oc(=O)c2c1,.,2,0,.,-25,13,-2,.,
Cc1c(NC(=O)c2cccs2)cccc1NC(=O)c1cccs1,-8,3,6,-6,-15,-4,-3,i,
CC1CCCC(C)N1C(=O)Cn1c(SCC(=O)NCc2ccc3c(c2)OCO3)nc2ccccc21 (centres undefined),-8,-1,-2,-10,-12,-5,38,i,
CC/C(=N\NC(=O)C1CCCC1)c1ccc(Br)cc1,-10,0,2,-11,-6,-4,37,i,
N#Cc1ccc(CN2CCN(C(=O)CNS(=O)(=O)c3ccc4c(c3)OCCCO4)CC2)cc1,.,2,-5,.,-11,-2,.,.,
COc1cc(C(=O)OCC(=O)NC2CCS(=O)(=O)C2)c([N+](=O)[O-])cc1OC (centres undefined),-3,1,5,6,.,-7,-2,i,

# Overlap with the part before: 2 entries; new compounds follow.
SMILES,PABP polyA inh,MT1-MMP act inh,MT1-MMP act inh RFP,eIF4H FP inh,Yeast UUG start,CSC inhib,HIV Env fusion,Rce1 inh,others
N#Cc1ccc(CN2CCN(C(=O)CNS(=O)(=O)c3ccc4c(c3)OCCCO4)CC2)cc1,.,2,-5,.,-11,-2,.,.,
COc1cc(C(=O)OCC(=O)NC2CCS(=O)(=O)C2)c([N+](=O)[O-])cc1OC (centres undefined),-3,1,5,6,.,-7,-2,i,
CCN(CC)c1ccc2c(C)c(CN3CCOCC3)c(=O)oc2c1,12,2,5,6,-11,58,.,i,
CCN(CC(=O)Nc1ccc(OC)cc1)C(=O)CCS(=O)(=O)c1ccc(C)cc1,39,-2,1,9,-7,-10,.,i,
Nc1ncnc(Sc2ccccc2)c1[N+](=O)[O-],3,-4,-11,-4,.,9,38,i,
O=C1CC(c2ccc(F)cc2)CC(O)=C1C=NCCN1CCNCC1 (centres undefined),.,0,2,.,-12,.,.,i,
NC(=O)c1ccccc1OCc1nnc(-c2ccccc2Br)o1,8,1,-4,-5,-6,5,-8,i,
C/C(=N\OCC(=O)OC(C)C(=O)Nc1ccc(C(N)=O)cc1)c1ccc2c(c1)OCO2 (centres undefined),-4,2,4,-5,-19,-11,3,i,
O=C(N/N=C/c1ccccc1)c1cc[n+]([O-])cc1,7,3,4,101,.,0,1,i,eIF4H FP inh retest=4;PABP polyA inh retest=10
CCn1cc(CN2CCC(n3nccc3NC(=O)CCCc3ccccc3)CC2)cn1,2,1,1,-4,0,-21,6,i,
CCCOc1ccc(OCC(=O)c2[nH]c(C)c(C(C)=O)c2C)cc1,-2,1,-16,25,.,1,.,i,
CCC1CCCCN1C(=O)CSc1nc(N)cc(=O)[nH]1 (centres undefined),15,-2,-6,-7,-17,-4,-2,i,
CCN(CC)S(=O)(=O)c1ccc(C2=NOC3(C2)N(C)c2ccccc2C3(C)C)cc1 (centres undefined),1,5,-1,6,-15,24,17,i,
CCCCNCC(O)(c1ccc(Cl)cc1)c1ccc(Cl)cc1,-10,14,4,-1,.,.,-12,i,
Cn1c(CCN2CCCCC2)nc2cc([N+](=O)[O-])ccc21,-12,-4,-2,3,-16,3,.,i,
FC(F)(F)c1cnc(-c2cnc3c(-c4ccc(Cl)cc4)cnn3c2)c(Cl)c1,6,7,1,0,-15,-4,-18,.,
O=C(CCCC(=O)c1ccc(O)cc1)c1ccc(O)cc1,.,-4,1,.,-12,16,4,i,
Cc1cc(C)nc(/N=C(\N)Nc2ccc(OCc3ccccc3)cc2)n1,-7,-4,-12,0,.,44,13,i,
CC(=O)C1=C(C)NC(SCC(N)=O)=C(C#N)C1c1ccco1 (centres undefined),-8,2,3,0,-12,7,-3,i,
Cc1ccc(S(=O)(=O)c2nc(-c3cccs3)oc2SCC(N)=O)cc1,5,-5,0,-2,.,-10,-138,i,
O=S1(=O)c2ccccc2OC(COCc2ccccc2)CN1C1CC1 (centres undefined),.,1,-5,.,1,.,-12,.,
OCCCc1nc2ccccc2n1CCCCOc1ccccc1,11,-5,-2,-6,-8,-8,11,i,
COc1cccc(C(C)(O)c2nc(-c3ccc(F)cc3OC)cs2)c1 (centres undefined),.,-2,1,.,-23,.,6,.,
Cc1cccc(Nc2nc(N)nc(CN3CCN(c4ccccc4F)CC3)n2)c1,.,5,0,.,-15,-1,5,i,
CCc1c(O)nc(SCC(=O)Nc2ccccc2)n(-c2ccccc2C)c1=O,.,1,0,.,8,.,16,.,
O=C(Nc1ccccc1-c1ccccc1)C(=O)Nc1ccccc1-c1ccccc1,0,.,.,2,.,-2,.,i,
CCn1cc(C(=O)NCC2CCCO2)c(=O)c2cc(F)c(N3CCN(C)CC3)cc21 (centres undefined),-8,8,-4,-9,-8,4,.,i,
CC(C)NC(=O)CCCc1cn(C)c2ccccc12,-6,7,-1,-16,-25,6,.,i,
O=C1NCCN/C1=C\C(=O)c1ccc(F)cc1,-5,-1,5,-6,.,16,-7,i,
N#C/C(=C\c1c(N(Cc2ccccc2)Cc2ccccc2)nc2ccccn2c1=O)C(N)=O,2,-8,-9,-7,0,4,58*,i,
COc1ccc(N2CCN(CCCNC(=O)CCC(=O)N3CCOc4ccc(Cl)cc43)CC2)cc1,6,-1,-5,-6,-6,-9,23,i,
CCN1CCN(C(=O)c2ccc3c(=O)n(CCC4=CCCCC4)c(=O)[nH]c3c2)CC1,6,1,-2,14,9,13,21,i,

# A draw from above in order of molecular weight, largest number first.
SMILES,PABP polyA inh,MT1-MMP act inh,MT1-MMP act inh RFP,eIF4H FP inh,Yeast UUG start,CSC inhib,HIV Env fusion,Rce1 inh,others
COc1ccc(N2CCN(CCCNC(=O)CCC(=O)N3CCOc4ccc(Cl)cc43)CC2)cc1,6,-1,-5,-6,-6,-9,23,i,
N#C/C(=C\c1c(N(Cc2ccccc2)Cc2ccccc2)nc2ccccn2c1=O)C(N)=O,2,-8,-9,-7,0,4,58*,i,
CCn1cc(C(=O)NCC2CCCO2)c(=O)c2cc(F)c(N3CCN(C)CC3)cc21 (centres undefined),-8,8,-4,-9,-8,4,.,i,
CCN1CCN(C(=O)c2ccc3c(=O)n(CCC4=CCCCC4)c(=O)[nH]c3c2)CC1,6,1,-2,14,9,13,21,i,
FC(F)(F)c1cnc(-c2cnc3c(-c4ccc(Cl)cc4)cnn3c2)c(Cl)c1,6,7,1,0,-15,-4,-18,.,
CCc1c(O)nc(SCC(=O)Nc2ccccc2)n(-c2ccccc2C)c1=O,.,1,0,.,8,.,16,.,
Cc1cccc(Nc2nc(N)nc(CN3CCN(c4ccccc4F)CC3)n2)c1,.,5,0,.,-15,-1,5,i,
O=S1(=O)c2ccccc2OC(COCc2ccccc2)CN1C1CC1 (centres undefined),.,1,-5,.,1,.,-12,.,
Cc1cc(C)nc(/N=C(\N)Nc2ccc(OCc3ccccc3)cc2)n1,-7,-4,-12,0,.,44,13,i,
CCCCNCC(O)(c1ccc(Cl)cc1)c1ccc(Cl)cc1,-10,14,4,-1,.,.,-12,i,
OCCCc1nc2ccccc2n1CCCCOc1ccccc1,11,-5,-2,-6,-8,-8,11,i,
CC(=O)C1=C(C)NC(SCC(N)=O)=C(C#N)C1c1ccco1 (centres undefined),-8,2,3,0,-12,7,-3,i,
Cn1c(CCN2CCCCC2)nc2cc([N+](=O)[O-])ccc21,-12,-4,-2,3,-16,3,.,i,
O=C(CCCC(=O)c1ccc(O)cc1)c1ccc(O)cc1,.,-4,1,.,-12,16,4,i,
CC(C)NC(=O)CCCc1cn(C)c2ccccc12,-6,7,-1,-16,-25,6,.,i,
O=C1NCCN/C1=C\C(=O)c1ccc(F)cc1,-5,-1,5,-6,.,16,-7,i,

# (cont.)
SMILES,PABP polyA inh,MT1-MMP act inh,MT1-MMP act inh RFP,eIF4H FP inh,Yeast UUG start,CSC inhib,HIV Env fusion,Rce1 inh,others
COCCn1c(C)cc(C2=NNC(=NC3CC3)SC2)c1C,-2,0,7,6,.,7,57*,i,
CC(=O)OC(C(=O)NCc1ccco1)c1ccncc1 (centres undefined),-7,-3,1,-1,-6,9,.,i,
Cc1ccc(C)c(NC(=O)CSc2nnc([C@@H]3CCCN3C(=O)OC(C)(C)C)o2)c1,-3,1,-1,5,15,5,.,i,
CCN(CC)S(=O)(=O)c1ccc2c(c1)nc(-c1ccccn1)n2C,18,-1,-3,22,-24,-2,-12,i,
CC(C)NC(=O)C1COc2ccccc2O1 (centres undefined),-5,8,11,0,.,-10,3,i,
O=C(NCc1ccco1)c1ccccc1NS(=O)(=O)c1cccs1,17,3,3,-4,.,3,19,i,
CCCCC(=O)NC(c1ccc(OC)c(OC)c1)c1c(O)ccc2ccccc12 (centres undefined),2,-6,-5,2,.,-15,.,i,
CCOc1cc(CNCCCN2CCOCC2)ccc1OCC(=O)Nc1cccc2ccccc12,5,6,-1,-2,.,11,.,i,
COc1ccc(S(=O)(=O)N2CCOCC2)cc1NC(=O)COc1ccc(C(C)=O)cc1OC,.,2,-3,.,-13,.,-22,.,
Cc1ccc([C@@H]2[C@@H]3C(=O)N(c4ccccc4)C(=O)[C@@H]3[C@]3(Cc4ccccc4)C(=O)N(CC4CC4)CC(=O)N23)o1,4,-1,6,-6,-10,1,-59,i,
CSC1=NC(C)(C)C=C(/C=C/c2ccc(Cl)cc2Cl)N1,-14,-7,-2,22,-10,13,2,i,
Clc1cccc(Cl)c1Cn1cnc2c(N3CCCCCC3)ncnc21,1,-18,-23,0,12,50,41,i,
O=C(Nc1cccc(C(=O)Nc2ccc(Cl)cn2)c1)c1ccccc1,-15,3,-5,4,-10,15,1,i,
Cc1ccsc1C(=O)OCC(=O)NCC1CCCO1 (centres undefined),5,9,9,-4,.,13,.,i,
